Screening data (PubChem BioAssay)
NPYLR7 ag = agonists of mosquito NPYLR7 receptor, primary screen, cell-based, Aedes aegypti, calcium fluorescence, mosquito biting behavior | Aedes aegypti neuropeptide Y-like receptor 7 (NPYLR7) | HEK293T NPYLR7/Galpha15, GCaMP6s calcium fluorescence | AID 1259423, 2018 | 270,000 tested, 0.15% active | activation, % at 10 µM; in the data active means activation above about 40%;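 further: 0% = vehicle and 100% = reference agonist at the receptor; some compounds past the cut are filed as inactive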
NPYLR7 ag max-min = recorded beside NPYLR7 ag, whose call it bears; activation, %; measured here: Max-Min RFU normalised activation; some inactives read as strong as hits;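 span of the calcium signal over five minutes; 0% = vehicle and 100% = native peptide agonist; compound fluorescence can raise it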
An asterisk follows results filed as active. Not all compounds are listed; the hit share may differ from the screen's.

SMILES	NPYLR7 ag	NPYLR7 ag max-min
O=C(c1cccc(-c2ccccc2F)c1)N1CCCC(CO)(Cc2ccccc2)C1 (stereo not given)	-11	-13
CCCn1ccnc1CN1CCC(N2CCCC2=O)CC1	-2	-4
Cc1cc(C)cc(N(CCC(=O)N2CCNC(=O)C2)S(=O)(=O)c2ccc(Cl)cc2)c1	9	3
O=C(NCCc1ccc(Cl)cc1Cl)c1ccc(-c2cccc(C(F)(F)F)c2)s1	1	-3
CCOc1ccc(Cl)cc1CN(C)Cc1cc2n(n1)CCNC2	17	11
CCCNC(=O)Cn1nc2c(c1NC(=O)COc1ccc(Cl)cc1Cl)CSC2	-8	-14
CC(C)NC(=O)CCn1cnc2ccc(Br)cc2c1=O	2	1
COC(=O)c1cccnc1N1CC[C@@H](c2ccc3ccccc3c2)[C@H](O)C1	7	5
COc1ccccc1N=c1oc2ccc(Br)cc2cc1-c1nc2ccccc2[nH]1	-5	-10
O=C(CSc1nc2ccccc2n1Cc1ccccc1)N/N=C\c1ccccc1C(F)(F)F	-4	-12
CCOc1cc(C(=O)Nc2c3c(nn2C(C)(C)C)CS(=O)C3)cc(OCC)c1OCC (stereo not given)	-1	-3
O=P1(NC2CCCCC2)C=C(c2ccccc2)SC(c2ccccc2)=C1	8	8
O=C(O)CSc1cccc2cccnc12	2	8
O=C(C1=CCCC1)N1CC[C@@H](N2CCN(c3ccccc3F)CC2)[C@H](O)C1	1	-1
COC(=O)C(=O)N1CCc2cc(OC)c(OC)cc2C1c1cccc(Cl)c1 (stereo not given)	-2	8
Cc1cc(C)cc(NC(=O)c2nnn(Cc3nc(-c4cccs4)oc3C)c2C)c1	16	14
CN(Cc1ccc(Cl)cc1)CN1C(=O)C2CCCCC2C1=O (stereo not given)	2	0
COCCN(CCOC)C(=O)c1c(-c2ccccc2Cl)noc1C	-9	-14
Cc1ccc(C(=O)NC2CCN(C(=O)Nc3cc(Cl)ccc3F)CC2)s1	2	-1
Cc1cc(C(=O)NCCCN(C)c2ccccc2)c(C)o1	-9	-13
CCOC(=O)C1CCN(C(=O)c2ccc(CSc3nc(-c4ccccc4)cc(N4CCN(c5ccccc5F)CC4)n3)cc2)CC1	7	18
CCCCn1c(N)c(N(Cc2ccco2)C(=O)c2cnccn2)c(=O)[nH]c1=O	8	13
Cn1c(CNc2nc3ccccc3n2C)nc2ccccc21	2	-1
CCCCCCCCn1c(N2CCC(C)CC2)nc2c1c(=O)[nH]c(=O)n2C	-2	-3
Cc1cc(N(C)Cc2ccccc2Br)nc(N)n1	-1	-2
CCC(CC)n1nc(C)cc1NC(=O)C(=O)Nc1ccc(C)cc1C	-4	27
Cn1cc(CCC(=O)N2CCCC(C(=O)Nc3ccc(-c4cscn4)cc3)C2)cn1 (stereo not given)	5	-2
Cc1cc(O)c(C(c2ccc(F)cc2)N2CCN(c3ccccc3)CC2)c(=O)n1Cc1ccccn1 (stereo not given)	10	6
CCOc1ccc(-c2nc(C(N)=O)c3[nH]c(=O)n(-c4ccccc4OCC)c3n2)cc1	16	6
CN1CCC(Cc2noc(-c3cccc(S(C)(=O)=O)c3)n2)CC1	1	-3
CC1(NC(=O)c2csc(-c3ccc(F)cc3)n2)CCS(=O)(=O)C1 (stereo not given)	2	-1
CCCn1cnnc1CN(C)Cc1cc2n(n1)CCNC2	4	4
CC(=O)Nc1nc(COC(=O)c2ccc(OCC3CCCO3)cc2)cs1 (stereo not given)	8	4
N#Cc1nc(NC(=O)CCNC(=O)c2ccccc2)[nH]c1C#N	1	3
CCCC(=O)Nc1cccc(C(=O)NCC2CC(CC)=NO2)c1 (stereo not given)	13	6
Cc1cc(C)n2c(NC(C)(C)CC(C)(C)C)c(-c3cccc(Cl)c3)nc2c1	5	15
Cc1ccc(OCc2nc(C(=O)NC3CC(C)(C)NC(C)(C)C3)cs2)cc1	8	5
Cc1nnc(COC(=O)c2ccc(Cl)c(S(=O)(=O)NC(C)(C)C)c2)o1	-1	0
Cc1nc2ncccc2c(=O)n1-c1ccc(F)c(NC(=O)c2ccc([N+](=O)[O-])cc2)c1	-5	-3
Cc1ccc(Nc2nc(N3CCOCC3)nc(N)c2[N+](=O)[O-])cc1C	-1	-2
O=C(Nc1ccc(SCc2cccnc2)nn1)c1cccs1	11	3
COc1ccc(OCCSc2nc3ccccc3n2CCC(=O)O)cc1	-4	-9
Cc1cnccc1N1CCCN(C(=O)C2CC3(CCNCC3)CN2)CC1 (stereo not given)	27	11
CCCc1cc2c(=O)c(-c3ccc4c(c3)OCO4)coc2cc1OCC(=O)O	-9	-12
O=C(c1ccc(Cl)cc1)N1N=C(C2CCCCC2)CC1(O)C(F)(F)F (stereo not given)	2	4
O=C(NCc1ccncc1)c1ccc(CSc2nnc(-c3ccco3)n2-c2ccccc2F)cc1	14	15
CCOc1ccc(N2C(=O)CC(N(C)CCc3ccc(OC)c(OC)c3)C2=O)cc1 (stereo not given)	1	-1
CCCc1nc(C)sc1C(=O)NCCC(C)(C)C	2	1
CCCN(Cc1cccnc1)Cc1cnc2c(-c3ccccc3)cnn2c1	-6	-9
COc1cc(OC)c(NC(=O)CN2CCC(C(=O)N3CCCC3)CC2)cc1Cl	-1	2
COc1ccccc1N1CCN(c2ccc(NC(=O)COc3ccc(Cl)cc3)cc2C(=O)NC(C)c2ccccc2)CC1 (stereo not given)	1	12
COc1cn(CC(=O)Nc2cccc(C)c2C)c(CSc2ccccc2)cc1=O	-4	-11
C=CCn1c(=O)c(C(=O)NCCCl)c(O)c2ccccc21	12	11
CCCC(Sc1nnc(NC(=O)c2cccc(Br)c2)s1)C(=O)OCC (stereo not given)	4	11
O=C(NCCn1ncccc1=O)Nc1ccccc1	-11	-15
CC(C)(C)C1CCC(=NOC(=O)c2cccs2)CC1 (stereo not given)	5	1
CCOC(=O)c1ccc(-c2cccc(O)c2)nc1	17	12
CCc1ccc(CNC(C)(C)CO)cc1	-3	-5
CC(C)OC(=O)[C@@H]1CCCN1C(=O)Cc1cc(-c2ccccc2)on1	-5	-6
CCSc1nnc(NC(=O)CCCOc2ccc(Cl)cc2Cl)s1	-3	-5
Going on with the list:
SMILES	NPYLR7 ag	NPYLR7 ag max-min
Cc1cccc(C(=O)NC2CCN(C(=O)c3ccccc3F)CC2)c1	-2	-3
CC1CN(C(=O)Cn2c(C(F)(F)F)nc3ccccc32)CCO1 (stereo not given)	-11	-11
O=c1[nH]cc(S(=O)(=O)Nc2ccccc2-c2ccccc2)c(=O)[nH]1	13	5
O=C(Cn1cnc2sccc2c1=O)c1ccccc1	8	1
O=c1c2cnc3nc(-c4ccccc4)nn3c2ccn1Cc1ccccc1	-3	2
Fc1ccc(Cn2c(=S)[nH]c3ccccc32)cc1	1	48
C=CCN(CC(=O)N(Cc1ccccc1)Cc1cccn1C)C(=O)Nc1ccccc1OC	-6	-1
Cc1cccc2c(CC(=O)Nc3ccccc3)noc12	-5	-9
Cc1ccc(S(=O)(=O)NNC(=O)C23CC4CC(CC(C4)C2)C3)cc1	-6	-11
COCCOc1ccc(F)cc1NC(=O)c1ccc(C#N)cc1	6	2
O=C(NCCc1cnccn1)C1(N2CCCCC2)Cc2ccccc2C1	11	0
CCOc1ccc(CCNc2nccn(-c3ccc(C)c(C)c3)c2=O)cc1OCC	-3	-9
O=S(=O)(Cc1ccc(Br)cc1)NCCO	9	8
Cc1nn(CC(C)C)c(Cl)c1C(=O)N(c1ccc(Cl)cc1F)S(C)(=O)=O	-3	-4
CCN(CC)S(=O)(=O)c1ccc(C)c(C(=O)NCc2ccco2)c1	0	-6
CN(C)CCCNc1nccnc1-c1cccc(C=O)c1	-7	-12
O=C(NCc1ccc(Cl)cc1)c1cc(N2CCN(Cc3ccccc3)CC2)nc2ccccc12	4	-1
Cc1cccnc1N1CCN(CC2CCOC(C)(C)C2)CC1 (stereo not given)	4	3
COCCN1CCN(C(=O)c2cn(C(C)C)cc3c(=O)n(-c4ccccc4)nc2-3)CC1	-6	-8
Cc1ccc2nc(CNC(=O)c3ccc(Cn4ccnc4)o3)[nH]c2c1	26	16
Fc1ccc(C=NN2CCN(C3c4ccccc4-c4ccccc43)CC2)cc1	-1	-2
Cc1ccc(C)c(S(=O)(=O)N2CCN(c3cccc(C)c3C)CC2)c1	0	1
Cc1nc(N2CCCCC2)ncc1-c1cc(=O)[nH]c(N2CCCCC2)n1	3	-1
C=CCN(Cc1ccc(F)cc1)C(=O)c1ncccc1C	4	1

Record cards, from the list above. Values in the order: NPYLR7 ag | NPYLR7 ag max-min
CCCCCCCCn1c(N2CCC(C)CC2)nc2c1c(=O)[nH]c(=O)n2C as listed: -2 | -3
CCCC(Sc1nnc(NC(=O)c2cccc(Br)c2)s1)C(=O)OCC (stereo not given) as listed: 4 | 11
Cc1cc(N(C)Cc2ccccc2Br)nc(N)n1 as listed: -1 | -2
Fc1ccc(Cn2c(=S)[nH]c3ccccc32)cc1 as listed: 1 | 48
CC(C)(C)C1CCC(=NOC(=O)c2cccs2)CC1 (stereo not given) as listed: 5 | 1

Filtered by structure: the entries above containing a nitro group on carbon
SMILES	NPYLR7 ag	NPYLR7 ag max-min
Cc1nc2ncccc2c(=O)n1-c1ccc(F)c(NC(=O)c2ccc([N+](=O)[O-])cc2)c1	-5	-3
Cc1ccc(Nc2nc(N3CCOCC3)nc(N)c2[N+](=O)[O-])cc1C	-1	-2

(further entries)
SMILES	NPYLR7 ag	NPYLR7 ag max-min
CC1(C(=O)NS(=O)(=O)c2cccs2)CCN1C(=O)Cc1cccs1 (stereo not given)	4	5
Nc1ccc(-c2ccc(-c3nc(CCCc4ccccc4)no3)cn2)cn1	3	-6
O=C(Nc1ccccc1F)c1cn(CC2CCCO2)cc2c(=O)n(-c3ccccc3)nc1-2 (stereo not given)	6	3
CC(C)CC1NC(=O)c2cnc(CC(N)=O)nc21 (stereo not given)	19	7
COc1cc2c(cc1OC)CN(CN1C(=O)CC3(CCCC3)C1=O)CC2	2	4
O=C1NC2(CCCc3ccccc32)C(=O)N1Cc1cc(=O)oc2cc3c(cc12)CCC3 (stereo not given)	-1	-2
CCCc1cncnc1N1CCCC(N2CCN(c3ccccc3OC)CC2)C1 (stereo not given)	4	1
CCS(=O)(=O)c1ccc(NC(=O)Cc2ccc(Cl)c(Cl)c2)cc1	-4	-4
Cc1[nH]nc(C(N)=O)c1NC(=O)Cc1ccc(OC(F)(F)F)cc1	12	11
COc1cccc(N2CC(c3nc4ccccc4n3Cc3ccc(F)cc3)CC2=O)c1 (stereo not given)	-1	-3
CCOC(=O)CNc1ccccc1C(=O)N1CCCC1c1c(C)noc1C (stereo not given)	8	3
O=c1c2[nH]cnc2n(-c2cccc(F)c2)c(=O)n1C1CCCC1	20	6
Cc1ccc(OCc2nnc(NC(=O)c3cccs3)s2)cc1	-6	-11
O=C(Nc1ccc(SCc2ccccc2F)nn1)C1CC1	0	-2
Cc1cccc(Oc2cc(C)nc(SCc3ccc(C(F)(F)F)cc3)n2)c1	21	18
CCc1nnsc1C(=O)N(CC(F)(F)F)c1cccc(C)c1C	-4	-8
CCCCc1ccc(C(=O)N2CCC[C@@H]2C(=O)NCCCNC(=O)c2ccccc2)cc1	14	12
C=C(C)CNc1ccc(C(=O)N2CCN(C(C)C)C(CC)C2)cn1 (stereo not given)	4	0
CCOC(=O)c1ccc(NC(=O)Cn2cnc3c(nnn3-c3cccc(C)c3)c2=O)cc1	-1	-7
CCOc1ccc(OCC)c(S(=O)(=O)Nc2ccc(F)cc2)c1	1	-5
O=C(O)c1cc(-c2cccs2)nn1-c1cccc([N+](=O)[O-])c1	15	19
Cc1sc2nc(C(C)N(C)Cc3ccccc3Cl)[nH]c(=O)c2c1C (stereo not given)	9	1
Cc1nn(C)c(Cl)c1S(=O)(=O)NC(C)(C)CC(C)(C)C	2	2
Cc1nc2scc(C)n2c(=O)c1NC(=O)c1ccc2ccccc2n1	17	10
COCCN(CC(=O)N1CCc2sccc2C1c1ccc(Cl)cc1Cl)C(=O)C(Cl)Cl (stereo not given)	-6	-3
CCN(CC(C)C#N)C(=O)c1nn(-c2ccccc2)c(C)cc1=O (stereo not given)	20	18
CCN1CCc2c(sc3nc(CC(C)C)nc(N4CCN(C(=O)Nc5ccc(OC)cc5)CC4)c23)C1	-7	3
Cc1nccn1CCNC(=O)CC1C(=O)NCCN1Cc1c(F)cccc1Cl (stereo not given)	13	-2
Cc1nc(NC(=O)NCC(C)Cn2ccnc2)sc1C (stereo not given)	-1	24
CCc1nn2c(Nc3ccc(NC(C)=O)cc3)cc(C)nc2c1-c1ccccc1	-2	-5
CCc1nc2ccc(C(=O)NCc3cccs3)cn2c1N(C)C(=O)c1cccc(OC)c1	13	19
CCOC(=O)c1cc(-c2ccc(OC)cc2)n(C2CCN(C(=O)c3ccc(Cl)cc3Cl)CC2)n1	4	5
CCC1CCCCN1C(=O)CCNC(=O)c1ccsc1 (stereo not given)	-9	-8
COC(=O)c1ccccc1NC(=O)c1c(-c2ccccc2Cl)noc1C	5	6
CCCn1c(=O)c2c(nc3n(CC(C)C)c(C)cn23)n(C)c1=O	1	2
CCN(Cc1cccc(-c2ccncc2)c1)C(=O)NCc1ccco1	5	4
CCCc1cc(NCC2CCCO2)n2ncc(-c3ccccc3)c2n1 (stereo not given)	-1	-4
O=C(COCc1ccccc1)N1CCC(n2cnc3cc(C(F)(F)F)ccc32)CC1	-4	-7
COc1cccc(CN2CC(C(=O)N(C)CC3CCOCC3)CCC2=O)c1 (stereo not given)	3	-1

Copied from the list.
NPYLR7 ag with CCN(CC(C)C#N)C(=O)c1nn(-c2ccccc2)c(C)cc1=O (stereo not given) reads 20
NPYLR7 ag max-min with CCC1CCCCN1C(=O)CCNC(=O)c1ccsc1 (stereo not given) reads -8
NPYLR7 ag with COC(=O)c1ccccc1NC(=O)c1c(-c2ccccc2Cl)noc1C reads 5
NPYLR7 ag with Cc1nccn1CCNC(=O)CC1C(=O)NCCN1Cc1c(F)cccc1Cl (stereo not given) reads 13
NPYLR7 ag max-min with O=C(COCc1ccccc1)N1CCC(n2cnc3cc(C(F)(F)F)ccc32)CC1 reads -7
NPYLR7 ag max-min with CCN1CCc2c(sc3nc(CC(C)C)nc(N4CCN(C(=O)Nc5ccc(OC)cc5)CC4)c23)C1 reads 3
